Screens: PubChem BioAssay, Broad Institute
Tgondii IFNg = T. gondii growth inhibition with IFN-gamma, primary screen, cell-based; AID 1259416, 2018; Toxoplasma gondii growth in IFN-gamma-treated host cells; stronger effect = lower value; reference of the scale not given here; activity change, negative = inhibition, %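 (about 20 µM by stock and volumes)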; actives 3.8% (n = 69,000);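 active = below -70%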;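 note: host cells are HeLa cells infected with Toxoplasma gondii; parasite growth read as luciferase light; one replicate is shown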
* hit, by the source's call; i = inactive. This is a subset; count on the stated rates, not on these rows.

SMILES,Tgondii IFNg
COc1ccc(-c2nc3c(s2)CN(S(=O)(=O)c2ccc(C)c(C)c2)CC3)cc1,-103*
CC(C)(C)c1nc(CN2CCOCC2)cc(CN2CCOCC2)c1O,-18
COCCN1CCN(c2ccc3ccc(C(=O)CCN4CCOCC4)cn23)CC1,-27
CN(C)c1ccc(NC(=O)c2cccs2)cc1,38
CCNC[C@@H]1[C@@H](c2ccc(-c3ccc(F)cc3)cc2)[C@@H](CO)N1C(=O)C1CC1,-51
CC1=C(C(=O)NCc2cccnc2)C2(CCN(S(=O)(=O)c3cccs3)CC2)OC1=O,14
CN(Cc1nc(C2CC2)no1)C(=O)[C@@]12CC[C@@](C)(OC1=O)C2(C)C,-20
CCc1nc(N2[C@H](C#N)[C@H](c3ccccc3-c3ccccc3C)[C@H]2CO)sc1C,0
CN(C)C(=O)c1ccc(-c2ccc(CC(=O)O)cc2)cc1,11
O=C(NCc1ccccc1)c1csc(Nc2ccncn2)n1,-67
Cc1cc(C)n(-c2cccc(CN(Cc3ccccc3)Cc3ccncc3)c2)n1,13
Cc1n[nH]c(C)c1Cc1c(C(=O)NC(C)c2nc3ccccc3s2)noc1C (stereo unspecified),-42
O=C(c1cccs1)N1CCCn2cnc(COCC3CC3)c2C1,0
COCCn1cncc1CN1CCCC1c1nc2ccc(F)cc2[nH]1 (stereo unspecified),-12
COCC(=O)N(C[C@@H]1[C@@H](c2ccccc2)[C@H](CO)N1C(=O)NC(C)C)C(C)C,-3
CCSc1nnc(C2CCCN(CC(=O)Nc3ccc4c(c3)OCO4)C2)n1CC (stereo unspecified),56
COc1ccc(C(=O)N2C[C@@H]3[C@H](c4ccccc42)[C@H](CO)N3C(=O)Cc2ccccn2)cc1,-40
COc1cncc(C(=O)Nc2ccccc2C(F)(F)F)c1,-22
Cc1ccc(CN2CCO[C@@]3(CCC[C@H]3COc3cccnc3)C2)o1,12
CCN(Cc1noc(C)n1)C(=O)c1cc2n(n1)CCN(C(C)=O)C2,0
CCC(NC(=O)Cc1nc2ccc(Cl)cc2[nH]1)c1ncccc1C (stereo unspecified),0
CCN(CC)Cc1cc(CN2CCC(O)(c3cccnc3F)CC2)ccc1OC,0
CCCCCCCC/C=C/CCCCCCCC(=O)NC(CO)Cc1ccc(O)cc1 (stereo unspecified),-19
C[C@@H]1CN([C@@H](C)CO)C(=O)c2cc(NC(=O)Nc3cccc4ccccc34)ccc2O[C@H]1CN(C)S(=O)(=O)c1cccs1,5
O=S(=O)(Nc1ncccn1)c1ccc(Cl)cc1,-27
COC(=O)c1ccc(N2CCN(C)CC2)c(NC(=O)c2cccs2)c1,20
CN1CC2(CCN(CC(=O)N3CCc4ccccc43)C2)OC1=O (stereo unspecified),7
CNC[C@H]1Oc2c(NS(=O)(=O)c3ccc(Cl)cc3)cccc2C(=O)N([C@@H](C)CO)C[C@H]1C,-11
CC(C)(C)CN1CC2(CCN(C(=O)Cc3ccc(Cl)cc3)C2)C1,3
Cc1cnn(Cc2ccc(Cl)cc2)c1NC(=O)c1c(C)oc2c1C(=O)CCC2,-3
Cc1nccn1CCn1ccnc1-c1ccccn1,0
CCOc1ncccc1-c1nc(C)cc(NC)n1,7
CCS(=O)(=O)Nc1ccc2c(c1)C(=O)N(C)[C@H]1CC[C@@H](CC(=O)NCc3ccccc3F)O[C@H]1CO2,-8
Cc1ccc(C(=O)Nc2nnc(Cc3ccc(Cl)cc3)s2)cc1-n1nnnc1C,-7
CCOCC1CN(S(=O)(=O)c2cn(C)cn2)Cc2c1cnn2C (stereo unspecified),6
CCC(C)Nc1nc2nc3ccc(C)cn3c(=O)c2cc1C(=O)NCc1ccco1 (stereo unspecified),53
Cc1ccc(-c2nc(CSc3nc4c(=O)[nH]cnc4n3-c3ccccc3)c(C)o2)cc1,-104*
CCN=C1SC(C(=O)Nc2ccc(OC)cc2)CC(=O)N1CC (stereo unspecified),12
CCn1ncc(S(=O)(=O)Nc2ccc3c(c2)nc(C)n3CCO)c1C,-23
Cc1cccc(-c2nnc(-c3nc(NCc4ccccc4)c4ccccc4n3)o2)c1,-107*

Grouped by structure, those above with a tert-butyl group.
SMILES,Tgondii IFNg
CC(C)(C)c1nc(CN2CCOCC2)cc(CN2CCOCC2)c1O,-18
CC(C)(C)CN1CC2(CCN(C(=O)Cc3ccc(Cl)cc3)C2)C1,3

Next part.
SMILES,Tgondii IFNg
O=C(Cn1c(=O)cc(C(=O)N2CCOCC2)c2ccccc21)Nc1cccc(Br)c1,-49
Cn1ccnc1CN(C(=O)c1cc(-c2ccc(O)cc2)n[nH]1)C1CC1,1
O=C(C[C@H]1OC[C@H]2CN(Cc3ccccc3F)CC[C@@H]21)N1CCCO1,2
Cc1cccc(COC2COC3(CCN(Cc4ccoc4)CC3)C2)n1 (stereo unspecified),-3
COc1ccc(-n2c(=S)[nH]c3sc4c(c3c2=O)CC(C)(C)OC4)cc1,29
Cc1ccc(Nc2nc(C(=O)Nc3cccc(Cl)c3)nc3ccccc23)cc1,5
CS(=O)(=O)N1CC2CN(c3ncc(F)cn3)CCC2(c2ccccc2)C1 (stereo unspecified),-5
O=C(Nc1ccc(F)cc1F)c1c(O)c2ccccc2n(-c2ccccc2)c1=O,24
CN(C)C(=O)C[C@H]1CC[C@H]2[C@@H](COC[C@@H](O)CN2S(=O)(=O)c2ccccc2Cl)O1,-11
CC1=N[C@]2(CC[C@@H]3CN(C(=O)NCC4CCCCC4)C[C@H]32)C(=O)N1CC(C)C,3
CC1Cc2cc(C(O)CN3CCN(c4nc5ccccc5o4)CC3)ccc2O1 (stereo unspecified),-1
Cc1cccc(CN2CC[C@]3(C2)C(=O)NC[C@@H]3COc2ccccn2)n1,-1
Cc1nc(NC(=O)N(C)Cc2ccco2)n[nH]1,-3
Cc1ccc(CNC(=O)Nc2ccc(-c3nc(-c4ccccc4)co3)cc2)cc1,91
COCC#Cc1ccc([C@H]2[C@H]3CN(C(=O)C4CCCCC4)CC(=O)N3[C@H]2CO)cc1,2
CN(C)C(=O)C[C@@H]1CC[C@@H]2[C@@H](COc3ccc(NC(=O)C4CCCCC4)cc3C(=O)N2C)O1,1
COc1cccc(NC(=O)N2CCC3(CC2)Nc2ccccc2-n2cccc23)c1,i
CC(C)CS(=O)(=O)N1C[C@H]2C[C@H](C(=O)Nc3cccnc3)[C@@H](C1)O2,152
O=C(Nc1cccc(Cl)c1)N[C@@H]1CC[C@@H](CCn2cc(Cc3ccccc3)nn2)O[C@H]1CO,-66
Cc1nnc([C@H]2CC[C@H]3[C@H](CCN3S(=O)(=O)N(C)C)O2)o1,-44
COc1ccc(NS(=O)(=O)c2cn(C)cn2)cc1,59
CC(C)CCC(=O)N1C[C@@H]2c3nc(N(C)C)ncc3CS(=O)(=O)[C@H]2C1,-6
CCOc1cc(C(=O)NCCc2csc(-c3ccc(C)cc3)n2)cc(OCC)c1OCC,80
Cc1nn(C)cc1NC(=O)C[C@@H]1CC[C@H]2[C@@H](COc3ccc(NC(=O)c4cccc(F)c4)cc3C(=O)N2C)O1,1
CN(C)C(=O)CN1CCC2(CC1)COc1ccccc1S(=O)(=O)N(CC1CC1)C2,-8
COc1ccc2c3c([nH]c2c1)[C@H](CO)N(S(=O)(=O)c1cn(C)cn1)CC31CCN(CC2CCCCC2)CC1,-34
CC(C)c1ccc(NC(=O)C2CC(=O)N(CCc3c[nH]c4ccc(F)cc34)C2)cc1 (stereo unspecified),-81*
c1ccc(CSc2ncnc3sc4c(c23)CCCC4)cc1,-65
Cc1cc(N2CCN(Cc3noc(C)n3)CC2)nc(-c2cccnc2)n1,-11
Cc1nc(-c2cccc(F)c2)sc1CCNC(=O)c1ccccc1Cl,35
CN1CCCN(CC(=O)NC[C@H]2CC[C@@H]3C[C@H]2C3(C)C)CC1,11
Cc1cc(C(=O)N2C[C@@H]3COC[C@@]3(COc3ccccn3)C2)c(C)o1,4
COCCNC(=O)[C@]12CCO[C@@H]1CCN(c1ccc(C)nn1)C2,0
CCCN1C[C@H](NC(=O)CCc2cc(Cl)no2)[C@@H](c2ccc(OC)cc2)C1,14
Cc1ccccc1-c1cccc(-c2nccn2CCO)c1,-9
Cc1cc(S(=O)(=O)NCc2nn(-c3ccccc3)nc2C)c(C)s1,-17
Cc1[nH]c2ccccc2c1CC(=O)N1CCN2C(=O)CN(C)C(=O)C2C1 (stereo unspecified),0
CC(C)(NC(=O)c1cccs1)C(=O)N1CCCC(c2ccn[nH]2)C1 (stereo unspecified),0
CCOc1ccccc1NC(=O)NCC(c1cccnc1)c1c[nH]c2ccccc12 (stereo unspecified),165
O=C(c1ccccc1)N1CCC2(CC1)Nc1ccc(Cl)cc1-n1cccc12,6
CO[C@H]1CN(C)C(=O)c2cc(NS(=O)(=O)c3cn(C)cn3)ccc2OC[C@@H](C)NC[C@@H]1C,39
Cc1cc(C(=O)N2C[C@H]3C[C@@H]4[C@@](C2)(CN(CCC(C)C)S4(=O)=O)O3)no1,12
O=C(c1ccncc1)N1C[C@@H]2COc3ccccc3[C@@H]2N1c1ccccc1,4
COCC(NC(=O)C(=O)N1CCCCCC1)c1ccnn1C (stereo unspecified),1
O=C1CCC2(CCN1)CCN(c1ccc(-c3ccccc3)nn1)CC2,41
CCO[C@H]1COC[C@@H]1NC1CCN(c2cccc(C)c2C)CC1,0
c1cc(C(N2CCOCC2)N2CCOCC2)ccn1,-39
Cc1ccc(CNc2nc(Cn3c(C)nc4ccccc4c3=O)cc(=O)[nH]2)cc1,8
O=c1oc2ccccc2c(Sc2ccccc2)c1Sc1ccccc1,-52
CN(C)S(=O)(=O)N1C[C@H](OCc2ccccn2)[C@@H]2OCCC[C@@H]21,1
CCn1c(C2CCCN(C(=O)Nc3ccccc3)C2)nn(CCN(C)C)c1=O (stereo unspecified),8
CC(=O)N1CCC(C(=O)NCc2ccccc2)(N(C(=O)c2ccc(C)cc2)c2cccc(Br)c2)CC1,6
CCc1noc(CC)c1C(=O)N1C2CCC1CC(O)(c1ccc3c(c1)OCO3)C2 (stereo unspecified),6
COC(=O)[C@H]1[C@H](CO)[C@H]2Cn3c(ccc(-c4ccncc4)c3=O)[C@H]2N1Cc1ccccc1F,-48
COC(=O)c1ccccc1NC(=O)N1CCC2(CC1)CC(=O)c1ccccc1O2,37
COc1ccc2c3c([nH]c2c1)[C@H](CO)N(Cc1ccncc1)CC31CCN(CC2CCOCC2)CC1,-8

Further records:
SMILES,Tgondii IFNg
Cc1nnsc1CN(C)C(=O)c1cc(CC(C)C)on1,2
O=C(COc1ccccc1F)NCCc1csc(-c2ccc(Cl)cc2)n1,-6
Cc1cncc(C(=O)N2CC[C@@H]3O[C@@H](c4nc(C)no4)C[C@H]3C2)c1,-4
O=C1NCC2(CCCN(C(=O)CCn3cc(Cl)cn3)CC2)O1 (stereo unspecified),2
Cc1nc(CCNC(=O)C2CCN(S(=O)(=O)c3ccc(F)c(F)c3)CC2)cs1,26
CN(C)C(=O)CN1C[C@H]2OCCN(Cc3cnn(C)c3)[C@H]2C1,-23
C(=C\c1cccc(N2CCNCC2)c1)/c1ccccc1,3
Cc1ccc(CSC2=Nc3ccccc3C3=NC(CCC(=O)NCc4ccc5c(c4)OCO5)C(=O)N23)c(C)c1 (stereo unspecified),-8

Rewritten as labelled records: 4 of the compounds above
O=C1NCC2(CCCN(C(=O)CCn3cc(Cl)cn3)CC2)O1 (stereo unspecified)
  Tgondii IFNg: 2

Cc1ccc(CSC2=Nc3ccccc3C3=NC(CCC(=O)NCc4ccc5c(c4)OCO5)C(=O)N23)c(C)c1 (stereo unspecified)
  Tgondii IFNg: -8

Cc1nnsc1CN(C)C(=O)c1cc(CC(C)C)on1
  Tgondii IFNg: 2

Cc1cncc(C(=O)N2CC[C@@H]3O[C@@H](c4nc(C)no4)C[C@H]3C2)c1
  Tgondii IFNg: -4

Continuation:
SMILES,Tgondii IFNg
O=C(Cc1cccs1)Nc1cccc(-c2nc3cc4ccccc4cc3[nH]2)c1,-54
Cc1nc(-c2ccc(F)cc2)sc1CCNC(=O)C(=O)Nc1ccccc1C#N,32
c1ccc(-c2nnc(CN3CCCC3c3ccccn3)o2)cc1 (stereo unspecified),8
CCC(CC)C(=O)N(Cc1nc2sc(C)c(C)c2c(=O)[nH]1)C1CCCC1,-26
CCC(CC)C(=O)N1CCC(C)(C(=O)NCc2ccc(F)cc2F)CC1,-7
Nc1c(C(=O)Nc2nnc(-c3ccccc3)s2)sc2nc3c(cc12)CCC3,45
CSc1nc(Cl)c(-c2ccccc2)c(N2CCN(C(=O)C3CCCO3)CC2)n1 (stereo unspecified),-35
CN1C(=O)CC(c2ccncc2)C12CCN(Cc1nccs1)CC2 (stereo unspecified),1
N#Cc1c(-n2cccc2C#N)sc2c1CCCC2,41
CNC(=O)c1ccc(-c2nc(CN3CCN(S(=O)(=O)c4ccc(OC)cc4)CC3)c(C)o2)cc1,14
C[C@H](CO)N1C[C@H](C)[C@H](CN(C)C(=O)CCCN(C)C)OCCCC[C@H](C)Oc2ccc(NC(=O)Nc3ccc4c(c3)OCO4)cc2C1=O,313
CC(C)c1cc(C2CCN(C(=O)C3=NN(C)C(=O)CC3)CC2)[nH]n1,-3
